# 2A StopGo: High Throughput Screening for Foot and Mouth Disease Virus Antivirals; human cells with a luciferase reporter of 2A StopGo recoding; control for the full effect not named in the record; AID 1159524, 2015; Potency, µM (series often up to 57.9 µM), for inactives: at the top dose signal change, negative = less light; 1.2% of 410,000 active; active = well fitted falling curve with a large enough effect; inconclusive = small, poorly fitted or top-dose-only effect; inactive = no such curve, though single readings can be large or run the other way; tested in HEK293T cells; further: on the % scale 0 is the no-effect control and ±100 the full control effect; nearly all actives have a fitted effect of over 45% in size; luciferase light after 4 h
# RE007 growth inh: qHTS Assay for Inhibitors of the HIV-1 protein Vpr; S. pombe RE007 Vpr strain, BacTiter-Glo ATP luminescence, 24 h; control for the full effect not named in the record; Potency, µM (titrated, usually from 92.2 µM), for inactives: at the highest dose activity change, negative = less growth; 0.21% of 360,000 active; active = well fitted falling curve with a large enough effect; inconclusive = small, poorly fitted or top-dose-only effect; inactive = no such curve, though single readings can be large or run the other way;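 further: on the % scale 0 is the no-effect control and ±100 the full control effect; nearly all actives have a fitted effect of over 50% in size; the assay follows cell death caused by Vpr and the record does not say whether a fall means rescue or toxicity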
#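 Fission yeast strain RE007, carrying one chromosomally integrated HIV-1 vpr copy, was seeded at OD 0.01 in PMG+AL medium with 23 nL pinned compound. After 24 h at 30 °C and 99% humidity, viability was read by BacTiter-Glo luminescence.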
# NS1 inh: qHTS Assay for Inhibitors of Influenza NS1 Protein Function; S. cerevisiae slowed by influenza A NS1, growth recovery by OD600; Potency, µM (highest dose often 46.1 µM), for the others: at the top dose activity, positive = more growth; 0.4% of 270,000 active; AID 2326, 2010; further: actives are rising curves; nearly all actives have a fitted effect of over 50% in size
#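 Read-out: OD600 growth recovery of NS1-expressing budding yeast. Cells grown overnight at 30C in -URA glucose medium, washed, resuspended and diluted 1:100 in 2% galactose assay medium, pH 6.0. Same strain lacking NS1 served as positive control.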
# Cruzain inh noDet: qHTS Assay for Promiscuous and Specific Inhibitors of Cruzain (without detergent). purified cruzain, Z-FR-AMC fluorescence, no detergent. Potency, µM, for inactives: max response, negative = inhibition, most hits filed as inhibitors. 2.3% of 200,000 active. AID 1476, 2009; active means well fitted curve in the direction sought with a large enough effect; inconclusive means small, poorly fitted or top-dose-only effect, or another doubt; inactive means no such curve, though single readings can be large; an effect the other way counts as inactive or inconclusive;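 further: plate controls were enzyme without inhibitor for no effect and buffer without enzyme for full effect; nearly all actives have a fitted effect of over 40% in size; top concentration of the series not given in the record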
# Target sequence (P25779 123-467 limits assumed): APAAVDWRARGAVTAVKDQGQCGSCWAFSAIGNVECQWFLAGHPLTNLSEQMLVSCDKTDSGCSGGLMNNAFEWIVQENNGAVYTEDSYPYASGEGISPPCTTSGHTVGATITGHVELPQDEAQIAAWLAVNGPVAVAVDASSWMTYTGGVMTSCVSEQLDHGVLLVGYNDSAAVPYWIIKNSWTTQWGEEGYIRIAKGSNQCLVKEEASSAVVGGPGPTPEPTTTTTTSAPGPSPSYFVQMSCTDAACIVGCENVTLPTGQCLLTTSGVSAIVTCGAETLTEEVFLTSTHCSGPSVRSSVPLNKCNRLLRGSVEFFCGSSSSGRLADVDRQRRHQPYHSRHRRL
#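 Purified cruzain at 1.5 nM, pre-incubated 15 min with compound at room temperature in 100 mM sodium acetate pH 5.5, 5 mM DTT, 0.00005% Triton X-100. Reaction started with 2 uM Z-FR-AMC; AMC fluorescence increase over 60 s gives rate.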
# SARS PLP yeast: qHTS of Yeast-based Assay for SARS-CoV PLP; AID 485353, 2010; S. cerevisiae expressing SARS-CoV PLpro, growth rescue; control for the full effect not named in the record; Potency, µM (highest dose often 32.9 µM), without a hit: top-dose activity, positive = growth rescue; 0.19% of 330,000 active; further: 0% is about no effect; nearly all actives have a fitted effect of over 55% in size; growth read by luminescence after 48 h
# Cruzain inh Det: qHTS Assay for Promiscuous and Specific Inhibitors of Cruzain (with detergent); Cruzipain (Trypanosoma cruzi), P25779; purified cruzain, Z-FR-AMC fluorescence, 0.01% Triton; Potency, µM, without a hit: max response, negative = inhibition, hits mostly inhibitors; 0.43% of 200,000 active; AID 1478, 2009; active means well fitted curve in the direction sought with a large enough effect; inconclusive means small, poorly fitted or top-dose-only effect, or another doubt; inactive means no such curve, though single readings can be large; an effect the other way counts as inactive or inconclusive;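 further: plate controls were neutral wells for no effect and buffer without enzyme for full effect; nearly all actives have a fitted effect of over 40% in size; top concentration of the series not given in the record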
#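 Purified cruzain (1.5 nM final) was preincubated with compounds for 15 min at room temperature in 100 mM sodium acetate pH 5.5, 5 mM DTT, 0.01% Triton X-100. Reaction started with 2 uM Z-FR-AMC; AMC fluorescence change over 60 s gave activity.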
# Lassa entry inh: qHTS for Inhibitors of binding or entry into cells for Lassa Virus; Lassa virus pseudotype entry inhibition, cell reporter; control for the full effect not named in the record; 1.2% of 300,000 active; AID 540256, 2011; Potency, µM (doses to about 37.9 µM), for inactives: at the top dose activity change, negative = inhibition, most hits filed as inhibitors; active means well fitted inhibition curve with a large enough effect; inconclusive means small, poorly fitted or top-dose-only effect, or effect the other way; inactive means flat fitted curve, though single readings scatter; tested in HEK293 cells; further: on the % scale 0 is the no-effect control and ±100 the full control effect; nearly all actives have a fitted effect of over 50% in size; luciferase read-out
# MARV entry inh: qHTS for inhibitors of binding or entry into cells for Marburg Virus | Marburg virus pseudotyped entry inhibition, cell reporter; control for the full effect not named in the record; about a third of the inactives were read at about 46 µM | Potency, µM (titrated, usually from 37.8 µM), for inactives: at the highest dose activity change, negative = inhibition, most hits filed as inhibitors | 1.8% of 300,000 active | AID 540276, 2011; active = well fitted inhibition curve with a large enough effect; inconclusive = small, poorly fitted or top-dose-only effect, or effect the other way; inactive = flat fitted curve, though single readings scatter; tested in HEK293 cells; about a fifth of its hits are not listed in these tables; further: on the % scale 0 is the no-effect control and ±100 the full control effect; luciferase read-out
# Starred values were filed as active, the others as inactive; ? = inconclusive; . = not tested or not shown; & = joins results of further samples; [ ] = remark or other dose. Unless noted, the call rests on the fitted dose curve; in most records, active means well fitted rising curve with a large enough effect; inconclusive means small, poorly fitted or top-dose-only effect; inactive means no such curve, though single readings can be large or run the other way. Potency means the concentration at half of the fitted maximal effect.
SMILES,2A StopGo,RE007 growth inh,NS1 inh,Cruzain inh noDet,SARS PLP yeast,Cruzain inh Det,Lassa entry inh,MARV entry inh
O=C(Nc1cccc(Cl)c1)C1COc2ccccc2O1 (stereo not given),55.7%[activator],-14.8%,-16.8%,.,-9.6%,.,.,.
Cc1cc(S(=O)(=O)Nc2c(C(=O)O)[nH]c3ccccc23)ccc1F,12.4%,0.0%,-19.2%,-12.9%,11.2%,-4.5%,10.6%,-1.3%
CC(C)CCCCCCNC(=S)Nc1ccc(S(=O)(=O)N2CCOCC2)cc1,-26.5%,4.2%,20.8%,2.1%,17.9%,-26.3%,?,?
CCN(Cc1nc2ccccc2c(=O)[nH]1)C(=O)c1cccc(OCc2c(C)noc2C)c1,?,-3.0%,.,.,2.2%,.,?,?
CCCCCCCCCOC1OC(CO)C(O)C(O)C1NC(C)=O (stereo not given),-23.4%,2.3%,-1.1%,16.2%,5.0%,3.1%,1.9%,1.0%
CCOC(=O)C1CCN(C(=O)/C(C)=C\c2ccccc2)CC1,34.8%[activator],-20.0%,-3.2%,.,0.5%,.,.,.
COc1ccccc1C1C([N+](=O)[O-])=C(N)Oc2c1c(=O)oc1ccccc21 (stereo not given),8.8%,-17.6%,-2.7%,.,-0.3%,.,-3.7%,20.3%
CC1(C)NC(=O)N(CCCCOc2cccc(C(F)(F)F)c2)C1=O,-17.2%,10.9%,1.2%,25.4%,-4.2%,-2.4%,4.5%,6.6%
Cc1nc2cc(NC(=O)COc3ccccc3C#N)ccc2n1-c1ccccc1,-0.6%,-9.5%,-3.4%,8.8%,-3.2%,-3.4%,2.4%,4.8%
O=S(=O)(NCCc1cccs1)c1ccc(Br)cc1,89.3%[activator],-4.0%,-72.2%,.,-5.9%,.,-12.1%[46.1 µM],3.2%[46.1 µM]
Cc1cc(C2C(=O)C(C(=O)c3ccc(Cl)cc3)C(=O)CC2(C)C)on1 (stereo not given),-32.0%,12.6%,-0.9%,2.7%,4.7%,1.8%,15.5%,-7.1%
O=C(Cc1ccc(-n2c(=O)c3ccccc3n(Cc3ccccc3F)c2=O)cc1)NCC1CCCO1 (stereo not given),-5.0%,14.9%,?,-13.9%,7.1%,-1.6%,4.1%,-7.1%
CC1CCC2C(C1)Nc1c(C(=O)O)cccc1C2(C)C (stereo not given),-6.1%,?,-43.2%,.,-2.5%,.,.,-16.8%[46.1 µM]
O=C(c1cccc(S(=O)(=O)N2CCc3ccccc32)c1)N1CCOCC1,-3.6%,-0.8%,.,.,4.6%,.,0.2%,15.9%
O=C(CP(=O)(c1ccccc1)c1ccccc1)Nc1nc2ccccc2s1,-19.5%,2.1%,-2.4%,.,-0.1%,.,-6.2%,-4.7%
O=C(NCc1ccc(F)cc1)c1cnc2sccn2c1=O,?,-6.8%,-6.0%,-2.8%,-2.4%,0.3%,.,.
O=C(N/N=C/c1cccnc1)c1cc(Br)ccc1O,46.5%[activator],-8.7%,-3.6%,.,-2.7%,.,.,.
CC1(C)CC(=O)N(CC(=O)NCc2ccc(F)cc2)c2ccccc2S1(=O)=O,-22.5%,-4.6%,1.5%,1.4%,-3.6%,2.3%,.,.
COCCCNC(=S)NNC(=O)c1cc(Cl)c(O)c(Cl)c1,-4.6%,4.3%,-1.0%,.,-0.1%,.,.,.
Cc1cccc(N2CCN(C(=O)CCC(=O)N3CCOc4ccc(Cl)cc43)CC2C)c1 (stereo not given),?,-0.1%,-50.1%,.,-5.9%,.,.,.
COc1ccc(S(=O)(=O)c2c[nH]c(=S)[nH]c2=O)cc1Cl,-17.0%,1.3%,5.0%,.,2.1%,.,11.5%[46.1 µM],-2.2%[46.1 µM]
CCCN1CCN(C(=O)C2CCN(S(=O)(=O)c3c(C)noc3/C=C/c3ccc(C)cc3)CC2)CC1,-9.9%,10.5%,-15.6%,.,?,.,.,.
O=C(NCCCN1CCCC1=O)c1ccc2c(=O)n(-c3ccccc3F)c(=S)[nH]c2c1,-28.0%,6.8%,.,.,0.9%,.,-2.9%,-11.5%
O=C1NC(c2ccc(Cl)c([N+](=O)[O-])c2)Nc2ccccc21 (stereo not given),-27.5%,33.4%,5.8%,.,3.3%,.,.,.
CCCCNC(=O)c1ccc2c(SCC(=O)O)c3c(nc2c1)CCCC3,-20.7%,-5.3%,2.9%,6.3%,19.2%,-22.9%,11.0%,-0.5%
O=C(OCCN1CCCCC1)c1cccc(Cl)c1,-3.3%,5.1%,7.8%,.,5.0%,.,.,.
CCOC(=O)c1ccc2c(c1)N(CC)C(=O)c1ccccc1S2,-21.0%,12.4%,-11.1%,.,-2.6%,.,.,.
CSc1ccc(S(=O)(=O)NCC(=O)OCC(=O)N2CC(C)CC(C)C2)cc1[N+](=O)[O-] (stereo not given),-9.5%,-13.7%,.,.,-0.9%,.,-5.1%,12.3%
O=C(CN1CCN(Cc2ccccc2)CC1)Nc1ccc([N+](=O)[O-])cc1C(=O)Nc1ccccc1F,?,-7.4%,-6.8%,-6.4%,-17.3%,-4.0%,11.1%,14.9%
Cc1ccccc1-n1nnnc1SC(C)C(=O)NC1CCCc2ccccc21 (stereo not given),-19.8%,-6.9%,-9.0%,4.3%,7.2%,-5.1%,?,-2.5%
Oc1ccc(C2=NNC(c3ccc(O)cc3)=NN2)cc1,0.6%,0.4%,1.2%,.,0.7%,.,-10.6%,14.8%
Cc1ccc(S(=O)(=O)NCC(c2ccc(N(C)C)cc2)N2CCOCC2)cc1 (stereo not given),-6.6%,.,.,9.0%,.,-0.7%,-10.0%[46.1 µM],.
Cc1ccc(CNc2cnccn2)cc1,29.5%,-1.7%,-5.8%,-1.0%,-4.9%,10.6%,4.2%,18.5%
CC1CC(C)CN(CCCNS(=O)(=O)c2ccc3c(c2)oc(=O)n3C)C1 (stereo not given),17.5%,6.2%,-0.5%,.,-1.0%,.,-0.2%,16.8%
Cc1nc2ccn(Cc3ccco3)c(=O)c2cc1C(=O)N1CCN(c2ccccc2F)CC1,-8.6%,.,.,23.2%,.,-5.7%,-0.3%[46.1 µM],.
CCOC(=O)C1CCN(S(=O)(=O)c2ccc(-c3cc(C(F)(F)F)n(C)n3)s2)CC1,-29.8%,-4.8%,4.5%,.,0.6%,.,.,.
Cc1c(C(=O)N2CCCC2)oc2c1-c1nn(CC(=O)NCc3cccc(Br)c3)cc1CC2,-17.7%,.,.,?,.,-4.4%,?,.
COc1cc(CN(C(=O)c2cccs2)C2CCS(=O)(=O)C2)cc(OC)c1OC (stereo not given),12.6%,0.4%,-5.1%,.,-6.1%,.,.,.
Cc1ccc(C(=O)c2oc3ccccc3c2NC(=O)c2cc(-c3ccccc3)on2)cc1F,0.3%,.,.,-3.0%,.,-0.4%,-0.1%[46.1 µM],-0.4%[46.1 µM]
COc1ccc(C(=O)O)cc1S(=O)(=O)NC(C)C12CC3CC(CC(C3)C1)C2 (stereo not given),-23.4%,4.9%,.,.,-0.1%,.,-1.5%,0.3%
COc1ccc(SCC(=O)Nc2ccc(N3CCN(C)CC3)c(F)c2)cc1,33.1%[activator],-8.4%,5.5%,.,-1.0%,.,.,-24.7%[46.1 µM]
CC(C)Nc1ccc(C(CC(N)=O)NC(=O)c2ccc(Br)cc2)cc1[N+](=O)[O-] (stereo not given),0.0%,2.6%,1.7%,.,2.6%,.,.,.
COc1ccc(C(=O)NC(=O)COC(=O)C2COc3ccccc3O2)cc1 (stereo not given),-7.6%,13.9%,-0.1%,-25.0%,5.2%,2.8%,10.4%,1.3%
CCOc1ccc(S(=O)(=O)N2CCOCC2)cc1NC(=O)C1=COCCO1,-0.8%,-0.1%,.,.,-1.6%,.,8.7%,-7.0%
COc1ccc(C)cc1NC(=O)CN1C(=O)c2cccc3cccc1c23,-1.2%,3.1%,5.3%,-0.9%,2.7%,1.3%,3.9%,?
O=S1(=O)CCN(Cc2ccccn2)CC1,-5.3%,2.7%,-6.9%&3.4%,4.0%,-1.6%,2.7%,.,.
CCOc1ccc(N2CC(NC(=O)c3ccc4c(c3)OCO4)CC2=O)cc1 (stereo not given),1.4%,.,.,-2.8%,.,-0.4%,-0.1%[46.1 µM],.
Cc1c(Cl)cccc1NC(=O)CCS(=O)(=O)c1ccc2c(c1)oc(=O)n2C,-8.5%,.,.,-6.0%,.,-1.2%,7.4%[46.1 µM],.
Cc1ccccc1OCCn1c(=S)[nH]c2ccccc21,3.5%,-4.7%,-1.9%,.,?,.,-24.1%[46.1 µM],?
CC(C)CN1CC(Br)C(=O)NC1=O (stereo not given),-28.4%,25.6%,.,.,.,.,23.3%[46.1 µM],-3.1%[46.1 µM]
# (further entries)
SMILES,2A StopGo,RE007 growth inh,NS1 inh,Cruzain inh noDet,SARS PLP yeast,Cruzain inh Det,Lassa entry inh,MARV entry inh
Cc1cccc(NC(=O)c2sc3nc4c(c(-c5cccs5)c3c2N)CN(C)CC4)c1,0.0%,-13.9%,21.9%,?,-10.6%,-7.1%,-27.1%,?
O=c1nc2cccc3c2=c(/c1=C(\O)c1ccccc1)c1ccccc1c3=O,16.1%,1.0%,4.6%,.,-2.8%,.,.,.
Cc1cc(NC(=O)CN2CCC(C)CC2)nc2c1c(=O)oc1ccccc12,-11.0%,.,.,6.0%,.,-2.2%,?,-8.7%[46.1 µM]
Nn1c(SCc2cccc(Oc3ccccc3)c2)nnc1C(F)(F)F,6.1%,10.1%,-18.4%,-7.5%,-9.9%,-5.6%,0.4%,?
COc1cccc(OC)c1C(=O)NCCc1sc(-c2cccc(F)c2)nc1C,-1.7%,.,.,1.4%,.,-6.1%,-4.1%[46.1 µM],.
Cn1c(CN2CCCCC2)nc2cc(NS(=O)(=O)c3ccc(F)cc3)ccc21,-19.0%,2.1%,0.8%,.,0.7%,.,1.2%,?
CCOC(=O)CSc1nnc2c3ccccc3n(CC)c2n1,-12.6%,-4.4%,-31.0%,.,-2.5%,.,.,.

# Compounds as they come; 4.6% or so of the library scored in one or more.
